MLL AF4-AF9 inh: inhibitors of AF4 peptide binding to AF9, primary screen, biochemical, AlphaScreen, biotin-AF4 peptide, FLAG-AF9, single point | inhibition, % at 10 µM | hit rate 0.47% among 350,000 | Protein AF-9 (Homo sapiens), P42568;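 active = every replicate reaching a set inhibition limit, whatever the replicate mean, cut at about 25% in these data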;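 also: 0% = plate neutral control median and 100% = total signal loss; the record names both 10 and 1 µM as test concentration; the first replicate is given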
Target sequence (P42568 whole entry, looked up): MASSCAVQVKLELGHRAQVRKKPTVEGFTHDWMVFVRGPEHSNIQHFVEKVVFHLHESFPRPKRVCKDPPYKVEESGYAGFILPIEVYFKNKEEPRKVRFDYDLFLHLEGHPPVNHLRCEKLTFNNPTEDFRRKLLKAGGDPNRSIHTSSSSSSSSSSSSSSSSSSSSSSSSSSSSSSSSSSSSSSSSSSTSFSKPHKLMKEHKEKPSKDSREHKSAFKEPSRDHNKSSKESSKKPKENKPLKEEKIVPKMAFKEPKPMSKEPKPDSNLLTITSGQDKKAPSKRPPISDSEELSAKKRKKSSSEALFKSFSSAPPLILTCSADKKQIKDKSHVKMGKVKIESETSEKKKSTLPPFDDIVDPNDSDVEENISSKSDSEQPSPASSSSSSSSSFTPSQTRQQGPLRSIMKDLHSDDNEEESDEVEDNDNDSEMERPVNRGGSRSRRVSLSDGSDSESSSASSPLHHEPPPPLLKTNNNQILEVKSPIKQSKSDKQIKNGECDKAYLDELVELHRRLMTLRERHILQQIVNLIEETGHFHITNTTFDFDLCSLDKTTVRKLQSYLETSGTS
The depositor's hits bear a star; & = joins results of further samples. These rows are one share of the data; rates above refer to the full screens.

SMILES	MLL AF4-AF9 inh
CCS(=O)(=O)N1CC(=O)N2[C@H](CO)[C@@H](c3ccc(C#CC4CCCCC4)cc3)[C@H]2C1	11.4
COCC(=O)N1CC2(C1)CN(C(=O)Nc1ccccc1F)[C@H](CO)c1[nH]c3cc(OC)ccc3c12	-3.7
COc1ccc2c3c([nH]c2c1)[C@H](CO)N(C(C)=O)CC31CN(C(=O)c2cccc(F)c2)C1	0.3
O=C(Nc1cc(F)ccc1F)N1CC(=O)N2[C@H](CO)[C@@H](c3ccc(-c4ccc(F)cc4)cc3)[C@H]2C1	-5.3
C[C@H](CO)N1C[C@H](C)[C@@H](CN(C)S(=O)(=O)c2cccc(F)c2)OCc2ccccc2-c2c(n(C)c3ccccc23)C1=O	-0.5
C[C@@H]1CCCCO[C@@H](CN(C)S(=O)(=O)c2ccc(Cl)cc2)[C@@H](C)CN([C@@H](C)CO)C(=O)c2cc(NC(=O)Nc3cccc4ccccc34)ccc2O1	-3.5
CC=Cc1ccc2n(c1=O)C[C@@H]1[C@@H](CO)[C@H](C(=O)N3CCCCC3)[C@H]2N1C(=O)C1CC1 (mixture of isomers)	-1.1
COc1ccc(CN(C)C[C@@H]2OCCCC[C@H](C)Oc3ccc(NS(=O)(=O)c4ccc(C)cc4)cc3C(=O)N([C@@H](C)CO)C[C@@H]2C)cc1	7.8
CC(C)NC(=O)N(C)C[C@H]1Oc2cc(-c3cccnc3)ccc2S(=O)(=O)N([C@H](C)CO)C[C@H]1C	1.7
CC(C)C#Cc1ccc([C@@H]2[C@@H](CO)N3C(=O)CN(C(=O)c4ccccn4)C[C@@H]23)cc1	0.0
O=C(C[C@H]1C=C[C@H](NC(=O)c2ccncc2)[C@@H](CO)O1)NCc1ccncn1	-3.4
O=C(C[C@@H]1C=C[C@H](NC(=O)c2cccnc2)[C@H](CO)O1)NCc1ccncn1	-3.0
CC(C)(C)S(=O)N1Cc2cc(C(=O)NCc3ccc(Oc4ccccc4)cc3)nc(-c3cccc(C#CCC4CCCC4)c3)c2[C@@H]1CCO (some centres not stated)	-3.4
Cc1nn(C)cc1NC(=O)C[C@H]1CC[C@@H]2[C@@H](COc3ccc(NC(=O)C4CCC4)cc3C(=O)N2C)O1	-3.1
O=C(c1ccncc1)N1CC(=O)N2[C@@H](CO)[C@H](c3ccc(/C=C/c4ccccc4)cc3)[C@@H]2C1	7.1

3 compounds out of the list, ordered by heavy-atom count, high to low.
SMILES	MLL AF4-AF9 inh
C[C@H](CO)N1C[C@H](C)[C@@H](CN(C)S(=O)(=O)c2cccc(F)c2)OCc2ccccc2-c2c(n(C)c3ccccc23)C1=O	-0.5
COCC(=O)N1CC2(C1)CN(C(=O)Nc1ccccc1F)[C@H](CO)c1[nH]c3cc(OC)ccc3c12	-3.7
CCS(=O)(=O)N1CC(=O)N2[C@H](CO)[C@@H](c3ccc(C#CC4CCCCC4)cc3)[C@H]2C1	11.4

Arranged by value in MLL AF4-AF9 inh (low to high): 3 of the compounds above.
SMILES | MLL AF4-AF9 inh
O=C(C[C@H]1C=C[C@H](NC(=O)c2ccncc2)[C@@H](CO)O1)NCc1ccncn1 | -3.4
COc1ccc2c3c([nH]c2c1)[C@H](CO)N(C(C)=O)CC31CN(C(=O)c2cccc(F)c2)C1 | 0.3
CCS(=O)(=O)N1CC(=O)N2[C@H](CO)[C@@H](c3ccc(C#CC4CCCCC4)cc3)[C@H]2C1 | 11.4

Of the compounds above, 4 contain fluorine.
SMILES	MLL AF4-AF9 inh
COCC(=O)N1CC2(C1)CN(C(=O)Nc1ccccc1F)[C@H](CO)c1[nH]c3cc(OC)ccc3c12	-3.7
COc1ccc2c3c([nH]c2c1)[C@H](CO)N(C(C)=O)CC31CN(C(=O)c2cccc(F)c2)C1	0.3
O=C(Nc1cc(F)ccc1F)N1CC(=O)N2[C@H](CO)[C@@H](c3ccc(-c4ccc(F)cc4)cc3)[C@H]2C1	-5.3
C[C@H](CO)N1C[C@H](C)[C@@H](CN(C)S(=O)(=O)c2cccc(F)c2)OCc2ccccc2-c2c(n(C)c3ccccc23)C1=O	-0.5

Next part
SMILES	MLL AF4-AF9 inh
CCC(=O)N(C)C[C@H]1[C@@H](c2ccc(-c3cccc(F)c3)cc2)[C@@H](CO)N1C(C)=O	-1.4
CCC(=O)N1CC(=O)N2[C@H](CO)[C@H](c3ccc(C#CCc4ccccc4)cc3)[C@H]2C1	-6.1
COc1cccc(S(=O)(=O)N[C@H]2C=C[C@H](CC(=O)NCc3ccncc3)O[C@H]2CO)c1	-4.3
O=C(CN1CCOCC1)N(CC1CCC1)C[C@H]1N[C@H](CO)[C@@H]1c1ccccc1	-7.2
O=C(c1ccccc1F)N1CC(=O)N2[C@H](CO)[C@H](c3ccc(-c4ccccc4)cc3)[C@@H]2C1	-0.9
CC(=O)N1CC(=O)N2[C@H](C1)[C@@H](c1ccc(-c3ccc(C(=O)N(C)C)cc3)cc1)[C@@H]2CO	-6.6
C[C@@H]1CN([C@H](C)CO)C(=O)c2cc(C3=CCCCC3)cnc2O[C@@H]1CN(C)C(=O)c1cccnc1	-2.1
O=C(C1CC1)N1CC(=O)N2[C@H](CO)[C@H](c3ccc(-c4cccnc4)cc3)[C@@H]2C1	-3.1
OC[C@H]1[C@H](c2ccccc2)C2(CN(Cc3ccccc3F)C2)N1Cc1ccccc1F	6.6
Cc1noc(C)c1NC(=O)N(C)C[C@@H]1Oc2ccc(NC(=O)CCC(F)(F)F)cc2C(=O)N([C@H](C)CO)C[C@H]1C	-0.2
N#C[C@@H]1[C@@H](c2ccccc2-c2ccccc2)[C@H](CO)N1C(=O)NC1CCCCC1	-0.2
Cc1noc(C)c1S(=O)(=O)Nc1cccc2c1O[C@H](CN(C)Cc1ccc(C(F)(F)F)cc1)[C@H](C)CN([C@@H](C)CO)C2=O	-1.5
Cc1ccc(-c2ccc([C@H]3[C@@H](CO)N4C(=O)CN(C(=O)Nc5cccc(F)c5)C[C@@H]34)cc2)cc1	-3.2
O=C(C1CCCC1)N1CC2(C1)[C@@H](c1ccccc1)[C@H](CO)N2C(=O)NC1CCCC1	-0.5
O=C(C1CCOCC1)N1CC(=O)N2[C@H](CO)[C@H](c3ccc(Br)cc3)[C@H]2C1	-4.2
C[C@@H]1CN([C@H](C)CO)C(=O)Cc2cc(N(C)C)ccc2O[C@H]1CN(C)C(=O)Nc1cccc2ccccc12	6.9
C[C@@H]1CN([C@H](C)CO)C(=O)c2cc(NS(=O)(=O)c3cn(C)cn3)ccc2O[C@@H](C)CCCCO[C@@H]1CN(C)Cc1ccccc1	-6.8
CC(C)CC#Cc1ccc([C@H]2[C@H](CO)N3C(=O)CN(C(=O)NC4CCCC4)C[C@@H]23)cc1	2.7
COc1cccc(-c2ccc(C3[C@H]4CNC[C@@H]3N4S(=O)(=O)c3cn(C)cn3)cc2)c1 (some centres not stated)	4.9&3.2
O=C1CNC[C@H]2[C@@H](c3ccc(C4=CCCC4)cc3)[C@@H](CO)N12	-0.6
C[C@@H]1CN([C@@H](C)CO)C(=O)c2cc(NC(=O)C3CCCCC3)ccc2O[C@@H](C)CCCCO[C@@H]1CN(C)S(=O)(=O)c1ccc(Cl)cc1	0.0
O=C(c1cnccn1)N1CC(=O)N2[C@@H](CO)[C@H](c3ccc(C#CC4CCCCC4)cc3)[C@@H]2C1	-2.6
COc1ccccc1S(=O)(=O)N1[C@@H]2CNC[C@H]1C2c1ccc(-c2ccccc2)cc1 (some centres not stated)	-5.7&-1.8
O=C(C1CCCC1)N1CC(=O)N2[C@H](CO)[C@H](c3ccc(Br)cc3)[C@@H]2C1	-3.8
O=C(C1CCOCC1)N1CC(=O)N2[C@H](CO)[C@H](c3ccc(C#CCc4ccccc4)cc3)[C@H]2C1	-2.1
O=C(C[C@H]1CC[C@H](NC(=O)C2CCOCC2)[C@H](CO)O1)Nc1ccccc1	-3.6
COc1ccccc1NC(=O)N1CC(=O)N2[C@H](CO)[C@@H](c3ccc(-c4cccc(C)c4)cc3)[C@H]2C1	0.8
O=C(Nc1ccc(F)cc1)N1CC(=O)N2[C@@H](CO)[C@H](c3ccc(C#Cc4ccc(F)cc4)cc3)[C@@H]2C1	0.9
CO[C@H]1CN(C)C(=O)c2cc(NC(=O)C3CC3)ccc2OC[C@H](C)N(C(=O)Cc2ccccn2)C[C@@H]1C	-2.5
COc1ccc2c3c([nH]c2c1)[C@@H](CO)N(C(=O)Cc1ccccn1)CC31CN(Cc2ccccn2)C1	5.1
N#Cc1ccc(-c2ccc(C3[C@@H]4CN(C(=O)c5cccnc5)C[C@H]3N4)cc2)cc1 (some centres not stated)	-6.9&-2.8
COC(=O)c1ccc(CN2CC(=O)N3[C@H](CO)[C@H](c4ccc(-c5cccnc5)cc4)[C@@H]3C2)cc1	1.3
C[C@H]1CN([C@@H](C)CO)C(=O)Cc2cc(NC(=O)CCC(F)(F)F)ccc2O[C@@H]1CN(C)S(C)(=O)=O	-3.1
CCCNC(=O)Nc1ccc2c(c1)C(=O)N(C)C[C@@H](OC)[C@@H](C)CN(CCC)[C@H](C)CO2	0.3
CN(C)CC(=O)N[C@@H]1CC[C@@H](CCNC(=O)C2CC2)O[C@@H]1CO	-2.6
O=C(C1CCCC1)N1[C@H](CO)[C@@H](c2ccccc2)C12CN(CCC(F)(F)F)C2	-1.4
COc1cccc(NC(=O)N2CC(=O)N3[C@@H](CO)[C@H](c4ccc(C5=CCCC5)cc4)[C@@H]3C2)c1	1.0
Cc1ccc(-c2ccc([C@@H]3[C@H](CO)N4C(=O)CN(C(=O)c5ccncc5)C[C@@H]34)cc2)cc1	0.5
C[C@@H]1CN([C@@H](C)CO)C(=O)Cc2cc(NS(=O)(=O)c3ccc(F)cc3)ccc2O[C@@H]1CN(C)Cc1ccc2c(c1)OCO2	-5.2
COc1ccccc1NC(=O)N1CC(=O)N2[C@H](CO)[C@H](c3ccc(C#Cc4ccc(F)cc4)cc3)[C@H]2C1	-0.6
COc1ccc2c3c([nH]c2c1)[C@@H](CO)N(C)CC31CN(C(=O)c2ccccn2)C1	2.1
O=C(O)C[C@@H]1C[C@@H]2c3cc(NC(=O)C4CCC4)ccc3O[C@@H]2[C@H](CO)O1	-4.0
O=C([C@@H]1[C@@H](CO)[C@@H]2Cn3c(cccc3=O)[C@@H]2N1Cc1ccccc1)N1CCCCC1	-1.8
CCCNC(=O)C[C@@H]1CC[C@@H]2[C@@H](COc3ccc(NS(=O)(=O)c4ccccc4C)cc3C(=O)N2C)O1	-1.1
O=C(NC1CCCCC1)N1CC(=O)N2[C@@H](CO)[C@H](c3ccc(-c4ccccc4)cc3)[C@@H]2C1	1.2
C[C@@H]1CCCCO[C@H](CN(C)S(=O)(=O)c2cccs2)[C@@H](C)CN([C@H](C)CO)C(=O)c2cc(NS(=O)(=O)c3ccccc3)ccc2O1	-9.7
O=C(O)C[C@H]1C[C@H]2c3cc(NC(=O)C4CCOCC4)ccc3O[C@H]2[C@H](CO)O1	-2.3
C[C@@H]1CN([C@H](C)CO)S(=O)(=O)c2ccc(C3=CCCC3)cc2O[C@H]1CN(C)S(=O)(=O)c1ccc(F)cc1	-1.1
COc1ccccc1-c1ccc([C@H]2[C@@H](CO)N(C(C)=O)[C@@H]2CN(C)C(C)=O)cc1	0.5
O=C(NC[C@H]1CC[C@H]2[C@H](CN2Cc2ccccc2F)O1)C1CCCCC1	-3.1
O=C(C1CCC1)N1CC2(C1)[C@H](c1ccccc1)[C@H](CO)N2Cc1ccc(Cl)cc1	4.6
C[C@@H]1CCCCO[C@H](CN(C)Cc2ccncc2)[C@H](C)CN([C@H](C)CO)C(=O)c2cc(NC(=O)CCCN(C)C)ccc2O1	-5.2
C[C@H](CO)N1C[C@H](C)[C@H](CN(C)CC2CC2)Oc2ncc(C#CC3(O)CCCC3)cc2C1=O	-2.8
CC=Cc1ccc2n(c1=O)C[C@@H]1N[C@H]2[C@H](C(=O)NC2CCCC2)[C@H]1CO (mixture of isomers)	-1.6
O=C(c1cnccn1)N1CC(=O)N2[C@H](C1)[C@H](c1ccc(C#CC3CC3)cc1)[C@@H]2CO	4.4
C[C@H](CO)N1C[C@H](C)[C@H](CN(C)C(=O)Nc2ccccc2)OCCCC[C@H](C)Oc2ccc(NC(=O)c3ccncc3)cc2C1=O	-1.2
C/C=C/c1ccc(C2[C@@H]3CN(S(=O)(=O)c4ccccc4)C[C@H]2N3)cc1 (some centres not stated)	-2.3
CCNC(=O)C[C@H]1C=C[C@@H](NC(=O)C2CCOCC2)[C@@H](CO)O1	-0.1
O=C(c1ccccn1)N1CC(=O)N2[C@H](CO)[C@@H](c3ccc(C#CCc4ccccc4)cc3)[C@@H]2C1	-2.3
COC(=O)C[C@H]1CC[C@H]2[C@@H](COc3ccc(NC(=O)c4ccccc4F)cc3C(=O)N2C)O1	1.2
Going on with the list.
SMILES	MLL AF4-AF9 inh
COc1ccc(-c2ccc([C@H]3[C@H]4CN(C(=O)NC(C)C)CC(=O)N4[C@H]3CO)cc2)cc1	-3.2
COc1ccc(S(=O)(=O)N(C)C[C@@H]2OCCCC[C@@H](C)Oc3ccc(NS(=O)(=O)c4ccc(Cl)cc4)cc3C(=O)N([C@@H](C)CO)C[C@@H]2C)cc1	-5.9
COc1cccc(S(=O)(=O)N2[C@@H]3CNC[C@H]2C3c2ccc(/C=C/c3ccccc3)cc2)c1 (some centres not stated)	-7.0&2.3
O=C(C[C@@H]1C=C[C@@H](NC(=O)C2CCOCC2)[C@@H](CO)O1)Nc1nccs1	-3.6
O=S(=O)(c1ccccc1)N1[C@@H]2CNC[C@H]1C2c1ccc(-c2ccccc2)cc1 (some centres not stated)	-1.1
O=C(Cc1ccccn1)N1CC(=O)N2[C@H](CO)[C@H](c3ccc(-c4ccccc4)cc3)[C@@H]2C1	-0.3
CN1C(=O)c2cc(NC(=O)C3CC3)ccc2OC[C@@H]2O[C@H](CC(=O)O)CC[C@H]21	-2.5
O=C(C1CC1)N1CC(=O)N2[C@H](CO)[C@@H](c3ccc(C#CC4CCCC4)cc3)[C@H]2C1	5.3
O=C(Cc1ccccn1)N1CC(=O)N2[C@H](CO)[C@H](c3ccc(-c4ccc(F)cc4)cc3)[C@H]2C1	1.4
O=C1CN(S(=O)(=O)c2cccc(F)c2)C[C@@H]2[C@H](c3ccc(-c4ccccc4)cc3)[C@H](CO)N12	-2.5
COc1ccc2c3c([nH]c2c1)[C@H](CO)N(C(=O)c1cccnc1)CC31CCN(C(=O)CN(C)C)CC1	-7.8
